VDR inhibitor = Inhibitors of the vitamin D receptor (VDR): qHTS; Potency, µM, inactives show max response, negative = inhibition, usual class: inhibitors; actives 0.93% (n = 400,000); VDR-SRC2-3 peptide fluorescence polarization, 2 h; active = well fitted inhibition curve with a large enough effect; inconclusive = small, poorly fitted or top-dose-only effect, or another doubt; inactive = no such curve, though single readings can be large or run the other way; note: series mostly up to about 120 µM
Target sequence (P11473 whole entry, looked up): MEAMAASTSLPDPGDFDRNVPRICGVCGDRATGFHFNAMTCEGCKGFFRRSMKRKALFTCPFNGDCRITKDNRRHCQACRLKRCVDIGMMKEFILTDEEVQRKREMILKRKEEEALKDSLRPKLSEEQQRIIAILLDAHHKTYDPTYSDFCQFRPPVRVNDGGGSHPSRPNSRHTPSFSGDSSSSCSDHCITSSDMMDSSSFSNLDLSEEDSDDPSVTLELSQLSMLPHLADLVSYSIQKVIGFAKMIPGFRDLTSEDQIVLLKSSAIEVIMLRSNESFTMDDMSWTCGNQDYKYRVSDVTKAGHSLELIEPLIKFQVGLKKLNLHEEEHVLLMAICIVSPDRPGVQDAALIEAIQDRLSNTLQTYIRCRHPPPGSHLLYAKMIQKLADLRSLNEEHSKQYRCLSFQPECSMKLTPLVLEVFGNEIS
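Fluorescence polarization assay measuring small-molecule disruption of VDR binding to the coregulator peptide SRC2-3. Compounds were pin-transferred (23 nl) into the reagent mix and incubated 2 h at room temperature before reading.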
* marks the source's active call; other numbers are inactive results; u = inconclusive; & = joins results of further samples. % is set by controls: 0 for no effect and ±100 for the full control effect; potency is the fitted concentration of half-maximal effect. Some of the compounds tested, so the mix of outcomes need not match the whole.

| SMILES | VDR inhibitor |
| --- | --- |
| CCn1c(CSc2nc(C)cc(C)n2)nnc1SCC(=O)N1CCCc2ccccc21 | 5% |
| COc1ccc(S(=O)(=O)NCC(c2cccs2)N2CCc3ccccc3C2)cc1 (centres undefined) | -18% |
| CC(C)(C)c1ccc(-c2noc(CCC(=O)Nc3cccnc3)n2)cc1 | 5% |
| Cn1c(=O)c2c(nc(-c3ccccc3)n2C)n(Cc2ccccc2)c1=O | -13% |
| Nc1nnnn1CC(=O)N/N=C/C=C/c1ccccc1 | -18% |
| CCn1c(SCC(=O)c2ccc(OC)cc2)nnc1C1CC1 | -13% |
| Cc1cc2ccccc2n1CCC(=O)O | 8% |
| COc1ccccc1N1CCN(C(=O)c2sc3nc4n(c(=O)c3c2C)CCC4)CC1 | 1%&-1% |
| CCCNC(=O)c1onc(CSc2ccc(Cl)cc2)c1C(=O)NC(C)C | -7% |
| COc1ccc(C)cc1N(C)C(=O)c1sc2nc3n(c(=O)c2c1C)CCCCC3 | -4% |
| CCc1ccc(C2CC(=O)Nc3cc4c(cc32)OCO4)cc1 (centres undefined) | -14% |
| CC(C)CNc1cc(NC2CCCCC2)c2c3c(onc13)-c1ccccc1C2=O | u |
| Cc1cc(NC(=O)COC(=O)c2oc3c(ccc4ccccc43)c2C)no1 | 1% |
| COc1ccc(S(=O)(=O)N(C)C[C@H]2Oc3ccc(NS(=O)(=O)c4cccs4)cc3CC(=O)N([C@H](C)CO)C[C@H]2C)cc1 | 11% |
| CCOC(=O)c1sc(C)c2c(=O)n(CCCN3CCOCC3)cnc12 | 2% |
| CN(CCOc1ccc(Cl)cc1)C(=O)C1CCN(C(=O)c2ccc(Cl)cc2)CC1 | -12% |
| NC(=O)CSc1nnc(SCc2ccc(F)cc2)s1 | -5% |
| O=S(=O)(NCC1CCCO1)c1ccc(S(=O)(=O)N(Cc2ccccc2F)C2CCCCC2)cc1 (centres undefined) | -4% |
| CCN(CC(=O)NCc1ccc(Cl)cc1)C(=O)CN1C(=O)NC(C)(c2ccccc2)C1=O (centres undefined) | -3% |
| O=[N+]([O-])c1ccccc1CSc1nc2ccccc2o1 | 0% |
| CN(CC(=O)Nc1ccc(Cl)c(C(F)(F)F)c1)C(=O)c1ccc2c(c1)OCCO2 | -15% |
| O=C(COc1nncc2ccccc12)Nc1c(F)c(F)c(F)c(F)c1F | -9% |
| Cc1ccc(C(=O)N/C(=C\c2ccco2)C(=O)NCCCn2ccnc2)cc1 | -22% |
| CCn1cc(C(=O)N2CC=C(c3ccccc3)CC2)c(=O)c2ccc(C)nc21 | -7% |
| COc1ccc(NC(=O)C2=CC=CN3CCS(=O)(=O)N=C23)c(OC)c1 | -6% |
| CC1(c2ccccc2)NC(=O)N(NC(=O)COC(=O)c2cc(Br)ccc2O)C1=O (centres undefined) | 4% |
| Cc1ccccc1N1CCN(CCCCN2C(=O)C3CCCN3C2=O)CC1 (centres undefined) | -3% |
| O=C1CCCC(=O)C1Sc1ccc(Cl)cc1 | 8% |
| CN1CCCN(C(=O)c2c(F)cccc2Cl)CC1 | -3% |
| COc1ccccc1/C(C)=N/NC(=O)c1nnn(-c2nonc2N)c1C(C)C | u |
| Cc1ccc(NC(=O)CSc2nc3ccccc3c(=O)n2CCCC(=O)NCC2CCCO2)cc1 (centres undefined) | -21% |
| COc1cccc(-c2nn(C)c3sc(C(=O)N4CCOCC4)cc23)c1 | -3% |
| O=C(Nc1ccccc1-c1ccccc1)C(c1ccccc1)c1ccccc1 | -16% |
| CC1(C)O[C@@H]2C[C@H]3[C@H]4C[C@H](F)C5=CC(=O)C=C[C@@]5(C)[C@@H]4[C@H](O)C[C@]3(C)[C@]2(C(=O)CO)O1 | -6% |
| COc1cc(/C=N/NC(=O)c2ccc(CN(C)S(=O)(=O)c3ccc(C)cc3)cc2)ccc1O | 2% |
| Cc1ccc(S(=O)(=O)N(CCCO)Cc2cc3c(C)ccc(C)c3[nH]c2=O)cc1 | 16% |
| Nc1nc2n(n1)C(c1cccs1)CC(c1ccc(Br)cc1)N2 (centres undefined) | 0% |
| NC(=O)c1cc(Sc2ccccc2)nc2ccccc12 | 18% |
| Oc1cccc(Nc2nc(N3CCOCC3)nc(N3CCOCC3)n2)c1 | -21% |
| CCc1nc(N2CCN(C(=O)c3ccco3)CC2)c(C#N)c2c1COC(C)(C)C2 | 2% |
| O=C(CSc1nc2nc(-c3cccs3)cc(C(F)(F)F)c2c(=O)[nH]1)Nc1ccc(F)c(F)c1 | -5% |
| COc1ccc(CNC(=O)Nc2ccc(C)c(C)c2)cc1 | -4% |
| O=C(CCS(=O)(=O)c1ccc(Br)s1)Nc1ccccc1Br | 4% |
| COc1ccc(CN(C)CCCn2cnc3c(OCc4ccccc4)ncnc32)cc1 | 0% |
| COc1ccc(Cl)cc1N1C(=N)SCC1=O | -23% |
| CC(C)(C)NC(=O)CSc1nnc(SCC(=O)NC(C)(C)C)s1 | 7% |
| Cc1ccc(-c2nnc(OCc3cccnc3)c3ccccc23)cc1 | -13% |
| O=C(CN1C(=O)NC2(CCCC2)C1=O)Nc1cc(S(=O)(=O)N2CCOCC2)ccc1OCC(F)(F)F | -17% |
| O=C(OCc1cc(=O)n2nc(-c3cccs3)sc2n1)c1ccccc1 | 8% |
| Cc1ccc(N2CC(NC(=O)C(=O)c3c[nH]c4ccccc34)CC2=O)cc1C (centres undefined) | -14% |
| CC(=O)Nc1ccc(NC(=O)C2CCN(c3cnccn3)CC2)cc1 | 2% |
| CCn1nc(C(=O)Nc2cccc3ccccc23)c(Cl)c1Cl | 5% |
| Cc1c(Cl)cccc1-n1cnc(=O)c2ccccc21 | -1% |
| COc1ccc(NC(=O)[C@H](Cc2c[nH]c3ccccc23)NC(=O)[C@@H]2Cc3ccccc3CN2)cc1 | -1% |
| CN/C(=C/[N+](=O)[O-])NCCSCc1ccc(CN(C)C)o1 | 0% |
| O=C(CNS(=O)(=O)c1ccccc1)OCC(=O)c1ccc([N+](=O)[O-])cc1 | u |
| O=C(CSc1ncn[nH]1)NCCc1ccccc1 | 13% |
| COc1ccc(NC(=O)C2CCN(c3ncnc4c3nc3n4CCCCC3)CC2)cc1Cl | -8% |
| Cc1c(C(=O)N(C)CCOc2ccccc2)oc2c(Cl)cccc12 | -1% |
| CCOCc1nnc(NC(=O)CSc2ccccc2)s1 | 6% |

Arranged by value in VDR inhibitor (high to low): some entries from above.
| SMILES | VDR inhibitor |
| --- | --- |
| O=C(CSc1ncn[nH]1)NCCc1ccccc1 | 13% |
| CC(C)(C)NC(=O)CSc1nnc(SCC(=O)NC(C)(C)C)s1 | 7% |
| CCOCc1nnc(NC(=O)CSc2ccccc2)s1 | 6% |

Additional structures:
| SMILES | VDR inhibitor |
| --- | --- |
| Cc1cc(NC(=O)CCC(=O)N(C2CC2)C2(C(=O)NC3CCCC3)CCC(C)CC2)no1 (centres undefined) | 15% |
| CCOC(=O)N1CCN(C(=O)c2ccc3c(=O)n(CCC4=CCCCC4)c(=O)[nH]c3c2)CC1 | 6% |
| NC(=O)C1CCN(C(=O)NC2CC(=O)N(c3ccc4c(c3)OCCO4)C2)CC1 (centres undefined) | -4% |
| Cc1ccccc1NS(=O)(=O)c1c(C(=O)N2CCCCCC2)c(C)n(C)c1C | -27% |
| CN(C(=O)Cn1cc(S(=O)(=O)N2CCN(c3ccccc3F)CC2)c2ccccc2c1=O)c1ccc(Cl)cc1 | -28% |
| OCCN(CCO)c1ccc2ccccc2c1 | -3% |
| CC1=C(C)CC(C(=O)N2CCN(Cc3ccc4c(c3)OCO4)CC2)C(C(=O)O)C1 (centres undefined) | 8% |
| CCOC(=O)CNC(=O)CSc1nc(C)cc(C)c1C#N | -4% |
| O=S(=O)(c1cccc(-c2n[nH]c(=S)n2Cc2ccccc2)c1)N1CCOCC1 | u |
| O=c1cc(-c2ccccc2)nc2nc(-c3ccco3)[nH]n12 | 17% |
| CCC(C)n1c(=N)c(C#N)cc2c(=O)n3cccc(C)c3nc21 (centres undefined) | 11% |
| O=C(c1ccccc1)N1CCCCC(Sc2nnnn2-c2ccccc2)C1=O (centres undefined) | 8% |
| CCCCOc1ccccc1C(=O)Nc1onc2c1CCCC2 | 11% |
| Fc1ccc(OCCCCCCN2CCCC2)cc1 | 3% |
| CCCN(C#N)c1nc(NCC)nc(NC(C)C)n1 | 10% |
| CC(=O)Nc1ccc(S(=O)(=O)NC(C)C(=O)NCC(c2ccco2)N(C)C)cc1 (centres undefined) | -12% |
| CCN(CC(=O)Nc1ccc(OC)cc1)C(=O)c1ccc(=O)n(Cc2ccccc2)n1 | 13% |
| COc1ccc2c(c1)O[C@@H](c1cccc(C(F)(F)F)c1)[C@H](OC(=O)NS(=O)(=O)c1ccc(C)cc1)C2=O | 7% |
| Cn1c2ccccc2c(=O)c2cc(C#Cc3cccc(N)c3)ccc21 | 23% |
| CSc1ccccc1NC(=O)CN(C)S(=O)(=O)c1ccc(F)cc1 | -10% |
| O=C1CC(Sc2ccc(Cl)cc2)C(=O)N1c1ccc2c(c1)OCCO2 (centres undefined) | -2% |
| Cc1cccc(NC(=O)c2ccccc2C(=O)O)c1 | -9% |
| CCOC(=O)C1=C(C)NC2=C(C(=O)CCC2)C1c1ccc(N(C)C)cc1 (centres undefined) | 0% |
| CC1CCCCN1C(=O)CSc1nnc(-c2cccs2)o1 (centres undefined) | 3% |
| CN(C)CCNC(=O)c1onc(CSc2nc3ccccc3[nH]2)c1C(=O)NCCN(C)C | -7% |
| COc1ccccc1N1CCN(S(=O)(=O)c2cccc(F)c2)CC1 | 25% |
| CC(C)(C)c1ccc(OCC(=O)N2CCN(C=O)CC2)cc1 | 8% |
| CC(C)CNC(=S)NNC(=O)c1ccc2c(c1)OCO2 | -13% |
| CC(C)N(C(=O)CSc1nc2c([nH]1)c(=O)n(C)c(=O)n2C)c1ccccc1 | -11% |
| Cc1ccc(S(=O)(=O)N2CCN(C(=O)COC(=O)c3ccccn3)CC2)c(C)c1 | -20% |
| COc1ccc(CCN2C(=O)CC(Cc3ccccc3)C2=O)cc1OC (centres undefined) | 15% |
| CCCN(CC(=O)c1cc(C)n(C)c1C)S(=O)(=O)c1cccc(C(F)(F)F)c1 | 11% |
| Cc1ccc(-c2nc3ncccc3o2)cc1NC(=O)c1sc2ccccc2c1Cl | 9% |
| Cc1nc2ccccc2nc1OCc1cccc([N+](=O)[O-])c1 | -4% |
| CCOC(=O)C1CCN(C(=O)CNC(=O)c2nn(-c3ccc(OC)cc3OC)c(=O)c3ccccc23)CC1 | 12% |
| COc1ccc(OCC(O)CNC(=O)c2cccs2)cc1 (centres undefined) | u |
| Cc1ccccc1NC(=O)CCN1CCc2ccccc2C1 | -4% |
| COc1ccc(S(=O)(=O)Nc2ccc3c(c2)C(=O)N([C@H](C)CO)C[C@H](C)[C@@H](CN(C)C(=O)Nc2ccc(C(F)(F)F)cc2)O3)cc1 | 19% |
| CC1CCCC(NC(=O)c2ccc(COc3ccccc3)o2)C1C (centres undefined) | -4% |
| COc1cccc(C(=O)NNC(=O)C(=O)N2CCCCC2)c1 | 2% |
| COC(=O)c1ccccc1NC(=O)COCc1cc(-c2cccs2)on1 | 11% |
| Cc1nn(CCCC(=O)NCCCN2CCN(C)CC2)c(=O)c2c1sc1ccccc12 | 1% |
| COc1ccc(N2CCN(Cc3nc4c(c(=O)n(C)c(=O)n4C)n3Cc3cccc(C)c3)CC2)cc1 | 8% |
| CCOc1cc(NC(=S)NCc2ccco2)c(OCC)cc1NC(=O)C1CC1 | -15% |
| COc1ccccc1OCCCOc1cccc(/C=C2\SC(=O)NC2=O)c1 | u |
| O=C(/C=C/Nc1nccs1)C(F)(F)Cl | 5% |
| Cc1cc(C)cc(-n2ccnc2SCC(=O)Nc2cccc3ccccc23)c1 | 12% |
| COc1ccc(NC(=O)c2oc3ccccc3c2NC(=O)c2ccc3c(c2)OCO3)cc1 | 0% |
| N/C(=N\OC(=O)N1CCOCC1)c1ccc(Br)cc1 | -12% |
| CCN(CC)C(=O)[C@H]1C[C@H](CC(=O)NC/C=C(\C)CCC=C(C)C)C(=O)N2CCc3c([nH]c4ccc(Cl)cc34)[C@]12C | -19% |
| CCN(Cc1ccccc1)C(=O)c1cc(-c2ccc(OC)c(OC)c2)nc2ccccc12 | -1% |
| COc1ccc(OCC(=O)N(Cc2ccco2)C2CCS(=O)(=O)C2)cc1 (centres undefined) | 7% |
| COc1ccc(NC(=O)CN(C)CC(=O)NC2CCC(C)CC2)cc1 (centres undefined) | -7% |
| COc1ccc(N2CC(C(=O)Nc3nnc(SCC(=O)NCc4ccco4)s3)CC2=O)cc1 (centres undefined) | u |
| O=C(CNC(=O)C(c1ccccc1)c1ccccc1)N/N=C\c1ccc(C(=O)O)cc1 | -1% |
| CC(NC(=O)COC(=O)C1=COCCO1)C12CC3CC(CC(C3)C1)C2 (centres undefined) | -6% |
| COc1ccc([C@@H]2[C@@H]3C(=O)N(C(C)(C)C)C(=O)[C@@H]3[C@]3(C)C(=O)N(c4cccc(Br)c4)C(=O)N23)cc1 | -1% |
| O=C(N/N=C/C=C\c1ccccc1[N+](=O)[O-])c1cccnc1 | -7% |
| COc1ccc2nc(Cl)c(C3CC(c4ccco4)=NN3C(=O)CCC(=O)O)cc2c1 (centres undefined) | -7% |
| COc1cccc(N2CCN(c3ncccn3)CC2)c1 | -10% |
| Cc1ccnc(NS(=O)(=O)c2ccc(NC(=O)c3ccc(C)o3)cc2)n1 | 8% |
| CCOC(=O)CC1(NC(=O)C2CCC(=O)N(Cc3ccccc3F)C2)CCCCC1 (centres undefined) | u |

Three entries from above, as labelled records.
> O=C(N/N=C/C=C\c1ccccc1[N+](=O)[O-])c1cccnc1
  VDR inhibitor: -7%
> COc1ccc2nc(Cl)c(C3CC(c4ccco4)=NN3C(=O)CCC(=O)O)cc2c1 (centres undefined)
  VDR inhibitor: -7%
> COc1cccc(N2CCN(c3ncccn3)CC2)c1
  VDR inhibitor: -10%
